Bioassay records from PubChem BioAssay.
fixLJ activator = activators of Burkholderia fixLJ two-component system, primary screen, B. multivorans, GFP reporter; 29,000 compounds, 0.3% hits; B. multivorans fixK-promoter GFP reporter, 18 h; stronger effect = higher value; z-score (concentration not given with the values); AID 1918990, 2023;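 active means replicate mean overnight rise in green fluorescent reporter signal, 3 or more SD over negative controls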;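 further: score is relative to vehicle wells of the plate; 300 nL library stock went into each well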
Numbers without * were called inactive. Only part of the results is shown (hit frequency here may not be typical).

SMILES	fixLJ activator
Cc1ccc(-c2cn[nH]c2C2CCCN(C(=O)CCn3nnnc3C)C2)cc1 (stereo unspecified)	-1.9
COc1ccc(-c2nc3ccccc3s2)cc1NC(=O)c1ccccc1F	0.58
COc1ccc(OC)c(NC(=O)CCCOc2cc(=O)n(C)c3ccccc23)c1	-0.18
Cc1cccc(C(=O)Nc2ccc(OCc3cc(=O)n4ccsc4n3)cc2)c1	-0.53
CCC(C(=O)NC1CCCCC1)n1c(SCc2ccc(F)cc2)nc2ccncc21 (stereo unspecified)	-1.6
CC1=C(C(=O)Nc2ccc(C)cc2C)C(c2cccs2)n2nc(SCc3ccc(Cl)cc3)nc2N1 (stereo unspecified)	-1.2
CCn1cc(C(=O)N2CCN(c3ccc(F)cc3)CC2)c(=O)c2cc(S(=O)(=O)N(C)C3CCCCC3)ccc21	-1.7
Cc1cccc(NC(=O)CSc2nc3c(oc4ccccc43)c(=O)n2Cc2ccco2)c1	-0.64
CC(=O)N1CCc2c(sc3c2c(=O)n(-c2ccc(F)cc2)c(=O)n3Cc2cc(C)ccc2C)C1	0.38
Cc1cccc(OCCn2c(-c3ccc(Cl)cc3)nc3ccccc3c2=O)c1C	0.01
O=C(NCc1ccccc1OC(F)(F)F)N1CCN(Cc2ccco2)CC1	-2
CCOc1ccc(-n2nc3cc(C)c(NC(=O)CC)cc3n2)cc1	-1.5
Cc1ccn2c(Nc3ccc4c(c3)OCCO4)c(-c3ccc(N(C)C)cc3)nc2c1	-0.67
O=C(CSc1nnc(COc2ccccc2)o1)Nc1cc(C(F)(F)F)ccc1Cl	-0.05
CCOc1ccc2c(c1)[C@@H]1C=CC[C@@H]1[C@H](c1ccccc1Cl)N2	0.99
COc1cccc(CNC(=O)Cn2ncn3c(cc4ccccc43)c2=O)c1	-1.7
Cc1cc(C)nc(NS(=O)(=O)c2ccc(NC(=O)c3ccccc3O)cc2)n1	-0.62
COc1ccc(NC(=O)CCN2CCN(c3cccc(Cl)c3)CC2)cc1	-2.5
CCn1c(CN2CCCC2)nnc1C1CCN(C(=O)Cn2ccnc2)CC1	-0.51
CCN(CC)S(=O)(=O)c1ccc2c(c1)N(CC(=O)Nc1ccccc1F)C(=O)C1CCCN21 (stereo unspecified)	-0.83
O=c1c(-c2cc(-c3ccccc3)nc3c2COc2ccc(Cl)cc2-3)coc2ccc(F)cc12	0.03
Cc1ccccc1Nc1c(-c2ccc(Cl)s2)nc2cccc(C)n12	0.45
Cc1nc(CN2C[C@@H]3COCC[C@@]3(O)[C@H]3COCC[C@@H]32)co1	-3.6
CCOC(=O)Cn1nc(C)c(NC(=O)COc2ccc(C)c(C)c2)c1C	-1.3
COCC(=O)Nc1ccc(NC(=O)c2cccc(N(C)C)c2)cc1Cl	0.08
(list continues)
SMILES	fixLJ activator
CCOCCCNc1nc2cc(OC)c(OC)cc2c2nc(-c3ccccc3)nn12	0.12
Cc1ccc(C(=O)/C=C/c2cn(CC(O)CN3CCCCCC3)c3ccccc23)cc1 (stereo unspecified)	-5
Cc1ccccc1CCC(=O)N1CC(C(=O)O)C2(CCOCC2)C1 (stereo unspecified)	-1.9
CCOC(=O)c1c(NC(=O)c2cc(CC)on2)sc(C(C)=O)c1C	-0.9
COc1ccc(NC(=O)CN(C)S(=O)(=O)c2cnc[nH]2)cc1Cl	-0.48
O=C(c1ccc(O)c(Cl)c1)N1CCc2c(nc(-c3cccnc3)[nH]c2=O)C1	-0.71
CCCCCCn1c(CNC(=O)c2ccccc2)nc2ccccc21	-1.4
Cc1ccc2c(=O)cc(C(=O)Nc3ccc(S(=O)(=O)N4CCCCC4)cc3)oc2c1	-1.3
COc1cc(OC)cc(C(=O)Nc2ccc(-c3nc4cc(C(C)C)ccc4o3)cc2)c1	2.1
CC(=O)c1cc(CN2CC3COC[C@]3(C(=O)N(C)Cc3ccon3)C2)cs1 (stereo partly specified)	-1.6
CC(C)c1nc(CS(C)(=O)=O)n(-c2cccc3cccnc23)n1	-0.78
CCc1cc(NCCn2ccnn2)nc(N2CCCCC2)n1	1.6
CCCOc1ccccc1C(=O)NC1CCOCC1OCCO (stereo unspecified)	-1.1
Cc1cc(Br)ccc1NC(=O)C(NS(=O)(=O)c1cccs1)c1ccccc1 (stereo unspecified)	-1.4
COCCCNC(=O)c1c(NC(=O)Cc2coc3cc(C)ccc23)sc2c1CCCC2	0
CN(Cc1nc2ccc(Cl)cc2[nH]1)C(=O)c1ncc(F)cc1F	-3.1
CCc1cccc(OCCCN(C)C(=O)Nc2ccc[nH]c2=O)c1	-0.74
COc1ccc(NC(=O)c2ccco2)cc1NC(=O)c1cc(Cl)ccc1OC	-0.55
O=C(NC1(C(F)(F)F)C(=O)Nc2c1c(=O)[nH]c(=O)n2-c1ccc(F)cc1)c1ccccc1 (stereo unspecified)	-2.2
O=C(c1cncc(=O)[nH]1)N1CC(O)C(Cc2ccc3ccccc3n2)C1 (stereo unspecified)	-2.5
COc1ccc(-c2[nH]ncc2C(=O)NCc2cccc(F)c2)cc1	-1.6
CC1CCN(S(=O)(=O)c2ccc3c(c2)N(CC(=O)NCCCOC(C)C)C(=O)CO3)CC1	0.54
CC(C)CCOc1ccc(Oc2nc(N(C)C)nc(N(C)C)n2)nn1	-0.9
CCC(=O)N1CCc2cc(Br)cc(S(=O)(=O)N3CCN(c4ccccc4OC)CC3)c21	0.22
COc1cccc(-c2[nH]ncc2C(=O)NCCN2CCOC2=O)c1	0.15

Fetched by compound from the entries so far, 4 records:
SMILES	fixLJ activator
CCOC(=O)c1c(NC(=O)c2cc(CC)on2)sc(C(C)=O)c1C	-0.9
CC(=O)c1cc(CN2CC3COC[C@]3(C(=O)N(C)Cc3ccon3)C2)cs1 (stereo partly specified)	-1.6
Cc1ccccc1CCC(=O)N1CC(C(=O)O)C2(CCOCC2)C1 (stereo unspecified)	-1.9
COc1cccc(-c2[nH]ncc2C(=O)NCCN2CCOC2=O)c1	0.15

The listing picks up, repeating the 4 entries before the break.
SMILES	fixLJ activator
CC1CCN(S(=O)(=O)c2ccc3c(c2)N(CC(=O)NCCCOC(C)C)C(=O)CO3)CC1	0.54
CC(C)CCOc1ccc(Oc2nc(N(C)C)nc(N(C)C)n2)nn1	-0.9
CCC(=O)N1CCc2cc(Br)cc(S(=O)(=O)N3CCN(c4ccccc4OC)CC3)c21	0.22
COc1cccc(-c2[nH]ncc2C(=O)NCCN2CCOC2=O)c1	0.15
Cc1cccc(NC(=O)c2cc3c(=O)n4cccc(C)c4nc3s2)c1C	-1.2
COc1ccc(N2CCN(c3c4c(nc5nncn35)CCC4)CC2)cc1	-1.5
Cc1ccc(CN(Cc2ccco2)C(=O)COc2ccc(C)c(C)c2)cc1	-1.5
COc1ccc(-n2nc(C(=O)N3CCN(c4cccc(C)c4C)CC3)c3c4ccccc4n(C)c3c2=O)cc1	1.1
C=CCc1cccc2cc(C(=O)Nc3cccc(Cl)c3)c(=O)oc12	0.34
COc1cccc(CNC(=O)C2CCN(c3nnc(-n4c(C)ccc4C)s3)CC2)c1OC	1.6
Cc1ccc(CNC(=O)CN2CCN(Cc3ccc(F)cc3)C2=O)cc1	-1.1
Cc1cccc(OCCCCn2nnc3sc4c(c3c2=O)CCC(C)C4)c1 (stereo unspecified)	-0.25
O=C(CSc1oc(-c2ccccc2)nc1S(=O)(=O)c1ccc(Cl)cc1)NC1CCCCC1	-2.3
CCOc1ccc(NS(=O)(=O)c2ccc3nc(-c4ccccc4)[nH]c3c2)cc1	-1.9
CCOC(=O)c1ccc(N2C(=O)c3n[nH]c(-c4cccs4)c3C2c2ccc(C(C)C)cc2)cc1 (stereo unspecified)	0.35
COC(=O)c1ccc(-c2noc(CN(C)CC3(CO)CC3)n2)cc1	-0.34
COc1cc(Br)ccc1C1C(C(=O)Nc2ccc(C)cc2C)=C(C)Nc2nnnn21 (stereo unspecified)	-0.24
Nc1c(-c2nc(-c3ccc4c(c3)OCO4)cs2)c2ccccn2c1C(=O)c1ccccc1	-0.31
CNC(=O)CCc1ccccc1NC(=O)c1cc(OC)nc2ccccc12	0.4
CC(C)(C)c1ccc(C(=O)Nc2cc(-c3nc4ccccc4o3)ccc2Cl)cc1	1.9
O=C(CC1(O)C(=O)N(CCc2ccccc2)c2ccc(Br)cc21)c1ccccc1 (stereo unspecified)	-1.1
Cc1cc(NC(=O)CN2CCC(O)CC2)nc2c1c(=O)oc1ccccc12	-2.1
CCCN(CCC)C(=O)Cn1c(=O)n(-c2ccc(CC)cc2)c(=O)c2ccc(C(=O)NCCc3ccccc3)cc21	-2
COc1cccc(CNC(=O)C2CCN(C(=O)c3cnn(-c4ccccc4)c3-n3cccc3)CC2)c1	-3
CCOc1nc(NC(=O)NS(=O)(=O)Oc2cccc(Cl)c2)nc(-c2ccccc2)n1	-0.95
COc1ccc2[nH]c(CNC(=O)c3cccc(-c4cn[nH]c4)c3)cc2c1	-0.45
CCOC(=O)c1ccc(NC2=CC(c3ccc(Br)cc3)N(c3ccc(C(=O)OCC)cc3)C2=O)cc1 (stereo unspecified)	-2.6
COc1ccc(NC(=O)CSc2oc(-c3ccco3)nc2S(=O)(=O)c2ccc(C)cc2)c(OC)c1	1.5
CC1C/C=C/C=C/C=C/C=C/C(O[C@@H]2O[C@H](C)[C@@H](O)[C@H](N)[C@@H]2O)CC2OC(O)(CC(O)CC3OC3/C=C/C(=O)O1)CC(O)C2C(=O)O (stereo partly specified)	-0.35

Among those listed so far, 2 contain a COOH group:
SMILES	fixLJ activator
Cc1ccccc1CCC(=O)N1CC(C(=O)O)C2(CCOCC2)C1 (stereo unspecified)	-1.9
CC1C/C=C/C=C/C=C/C=C/C(O[C@@H]2O[C@H](C)[C@@H](O)[C@H](N)[C@@H]2O)CC2OC(O)(CC(O)CC3OC3/C=C/C(=O)O1)CC(O)C2C(=O)O (stereo partly specified)	-0.35

Additional structures follow:
SMILES	fixLJ activator
COc1ccc(-c2nc3ccccc3o2)cc1NC(=O)CSc1ccc(Cl)cc1	-1.1
O=C1CC(CN2CCC(c3ccn[nH]3)CC2)CN1c1ccccc1 (stereo unspecified)	-2.8
Cc1ccccc1Cn1c2ccccc2c2cnn(CC(=O)NCc3cccc(Cl)c3)c(=O)c21	-1.5
COc1ccc(-c2cc(C(F)(F)F)n3nc(C(=O)Nc4sc5c(c4C(=O)OC(C)C)CCC(C)C5)cc3n2)cc1 (stereo unspecified)	-1.2
Cc1ccc(-c2nc(NC(=O)CSc3ccc4ccccc4n3)ns2)cc1	0.17
CCOc1ccc(CC(=O)Nc2c(C(=O)c3ccc(F)cc3)oc3ccc(Cl)cc23)cc1OCC	-1.2
N#Cc1ccc(-c2cccs2)nc1SCc1ccc(Cl)cc1Cl	-1.5
CCN(CC)C(=O)Cn1c(=O)n(CCCCCC(=O)NCc2ccccc2Cl)c(=O)c2sccc21	0.12
Cc1sc2c(c1C)c(=O)n(CCc1ccccc1)c(=O)n2Cc1ccc(C(C)(C)C)cc1	-0.62
O=S(=O)(c1ccccc1)c1nnn2c1nc(N1CCN(c3ccccc3)CC1)c1cc(Cl)ccc12	-0.54
CCN(C(=O)C(Cc1ccccc1)NS(=O)(=O)c1cccc2nsnc12)c1ccccc1 (stereo unspecified)	-1.4
CN(C)c1ncc(C=CC(=O)N2CCN(C(=O)C3CCC3)CC2)cn1	1.3
COc1ccc(Cl)cc1NC(=O)Cn1c(=O)n(Cc2cccs2)c(=O)c2cccnc21	-0.55
CCOC(=O)c1sc(NC(=O)C2c3ccccc3Oc3ccccc32)c(C(=O)OCC)c1C	-0.85
Cc1cc(C)cc(NC(=O)[C@H]2O[C@@H]3OC(C)(C)O[C@@H]3[C@H]3OC(C)(C)O[C@H]32)c1	-0.28
CCn1cnnc1CCNC(=O)CNS(=O)(=O)c1ccc(F)c(C)c1	-0.03
CCN(C(=O)C1CCC(CNS(=O)(=O)c2cccc3nsnc23)CC1)c1cccc(C)c1 (stereo unspecified)	-1.6
O=C(Cn1c(=O)n(-c2ccc(Cl)cc2)c(=O)c2c3c(sc21)CCC3)c1ccc(F)cc1	-4
Nc1ncc(C(=O)NCc2nncn2C2CCCCC2)c(C(F)(F)F)n1	-0.1
COc1ccc(NC(=O)CN2C(=O)CC(c3ccco3)Sc3ccccc32)cc1OC (stereo unspecified)	-0.72
Cc1ccccc1C(=O)N1CC(=O)Nc2ccc(Cl)cc2C1c1ccccc1 (stereo unspecified)	-2.4
CCN(CC)c1ccc(C2C(C(N)=O)=C(C)Nc3nc(SCc4ccccc4)nn32)cc1 (stereo unspecified)	-2.5
COCCCNC(=O)Cn1c(=O)n(Cc2ccc(C(=O)NCc3ccc(C)cc3)cc2)c(=O)c2ccccc21	0.17
Brc1cccc(-c2cnn3c(-c4ccccc4)cc(-c4ccccc4)nc23)c1	-1.5
O=C(Cn1c(=O)n(-c2ccccc2)c(=O)c2sc3ccccc3c21)N1CCCC1	-0.82

Another view of part of the listing above:
mol | fixLJ activator
CCn1cnnc1CCNC(=O)CNS(=O)(=O)c1ccc(F)c(C)c1 | -0.03
COc1ccc(Cl)cc1NC(=O)Cn1c(=O)n(Cc2cccs2)c(=O)c2cccnc21 | -0.55

(list continues)
SMILES	fixLJ activator
Cc1cnn(CCC(=O)NCc2cc3n(n2)CCN(C(=O)C2CCC2)C3)c1	0.88
CCn1c(C2CCCN(CC(C)=Cc3ccco3)C2)nn(C)c1=O (stereo unspecified)	-1.1
O=C(c1ccc2c(c1)N(Cc1ccccc1F)C(=O)c1ccccc1S2=O)N1CCN(c2ccccc2)CC1 (stereo unspecified)	0.89
COCCNC(=O)c1cc(-c2cccc(Cl)c2)on1	1.1
COc1cccc(C2C(C(N)=O)=C(C)Nc3ncnn32)c1 (stereo unspecified)	-0.51
Cc1ccc(NC(=O)Cn2c(=O)n(CCC(C)C)c(=O)c3cccnc32)cc1C	-0.61
Cc1ccc(NC(=O)C2CCCN(S(=O)(=O)c3cccc4nsnc34)C2)cc1C (stereo unspecified)	-1.1
COc1cccc(/C=C/c2nc(C#N)c(NCCN(C)C)o2)c1	-0.72
Cc1cc(CN(C)C(=O)c2cccc(-c3cnn(CCC(N)=O)c3)c2)on1	-1.3
CCc1ccc(CN(C(=O)c2nc(SC)ncc2Cl)C2CCS(=O)(=O)C2)cc1 (stereo unspecified)	-2.4
CCOC(=O)COc1ccc([N+](=O)[O-])cc1-c1ccnc2cc(-c3ccc(C)cc3)nn12	0.55
